# FGF22 binding – shifts melting point of recombinant human FGF22; Q9HCT0; recombinant FGF22 thermal shift, SYPRO orange fluorescence; percent of sucrose octasulfate shift, DMSO zero; calls only at 9.99 µM; 340,000 compounds, 1.5% hits; AID 651658;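 active = melting point raised past a set limit in the mean and every replicate; inconclusive = no clear call; three in four hits are not shown here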
# Target sequence (Q9HCT0 whole entry, looked up): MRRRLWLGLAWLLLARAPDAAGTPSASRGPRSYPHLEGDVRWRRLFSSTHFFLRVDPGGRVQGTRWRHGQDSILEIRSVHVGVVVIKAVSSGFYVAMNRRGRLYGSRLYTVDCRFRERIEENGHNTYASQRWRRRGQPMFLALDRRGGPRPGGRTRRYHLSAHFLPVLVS
# rRNA inh HTS – inhibits bacterial ribosomal RNA function over humanized ribosomes. 350,000 compounds, 1.6% hits. GFP signal change (wild-type ribosome), % (concentration not given with the values). AID 720706. E. coli WT GFP vs humanized-ribosome RFP mutants, fluorescence, 24 h; hits give low values; DMSO median 0, no signal -100;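 active = significant combined selectivity score with lowered wild-type GFP, culture density cut under 30%, mutant RFP and density less affected; inactive = any of these conditions unmet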; note: one replicate is shown; some compounds called inactive have numbers as strong as hits
# UCH37 inh – human UCH37 deubiquitinating enzyme inhibition; purified proteasome/UCH37, Ub-AMC cleavage fluorescence; inhibition, % (test concentration not listed); 330,000 compounds, 0.33% hits; AID 588478;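 active = mean of two replicates above 20%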;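 note: 0% = compound-free wells with enzyme and 100% = wells lacking proteasome; stock transfer was 100 nL into about 20 µL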
# Target sequence (Q9Y5K5 whole entry, looked up): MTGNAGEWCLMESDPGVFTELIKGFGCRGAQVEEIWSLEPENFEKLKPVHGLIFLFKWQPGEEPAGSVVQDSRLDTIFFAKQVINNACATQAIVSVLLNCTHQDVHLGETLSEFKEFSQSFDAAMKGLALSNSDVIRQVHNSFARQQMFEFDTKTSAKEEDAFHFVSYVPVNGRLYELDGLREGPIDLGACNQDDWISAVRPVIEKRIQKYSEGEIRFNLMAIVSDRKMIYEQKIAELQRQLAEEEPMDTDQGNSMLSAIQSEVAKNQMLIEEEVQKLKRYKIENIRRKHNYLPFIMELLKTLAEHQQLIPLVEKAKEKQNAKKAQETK
#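 Signal – fluorescence, ex 355 nm, em 460 nm · System – Proteasome-bound UCH37 · Input – 0.15 nM proteasome as dispensed · Timing – 30 min preincubation with enzyme, 25 min cleavage at room temperature · Read-out basis – percent inhibition of cleavage signal versus uninhibited and no-proteasome wells · Medium – Tris-HCl pH 7.4 with ATP-MgCl2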
# Ecoli growth – E. coli growth inhibition | Escherichia coli growth, OD600, 23 h; hits give low values | OD600 absorbance (test concentration not listed) | 330,000 compounds, 0.21% hits | AID 1053175;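 active = OD600 absorbance below the run mean of sample wells minus 3.6 SD, in any replicate, cut at about 0.56 in these data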;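 note: stock transfer was 300 nL into about 60 µL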
# A1 inh – inhibitors of the anti-apoptotic protein A1, read as caspase activation; MEF A1-2A-BIM cells, Caspase-Glo 3/7 luminescence, 3 h; percent of clofoctol response, vehicle zero; caspase activation, % (concentration not given with the values); 330,000 compounds, 0.066% hits;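 active = over half of replicate activation scores above 10%, or exactly half above 10 with the replicate mean above 10; inconclusive = replicate mean below 10 yet half the replicates above 10; inactive = over half of replicates below 10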;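 note: wells of about 30 µL received 50 nL stock; many hits fall short of the cut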
# T cruzi repl – blocks replication of Trypanosoma cruzi; T. cruzi beta-gal in NIH3T3, luminescence, 90 h; inhibition, % (test concentration not listed); 300,000 compounds, 1.4% hits;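 active = mean inhibition across valid replicates above about 55%, limit read from the data; inconclusive = mean below that limit but half or more replicates reach it; inactive = mean below it, under half of replicates reach it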;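 note: signal also drops with host cell toxicity which is not excluded here; 0% = plate median of DMSO wells and 100% = zero luminescence signal; higher percent means less beta-gal luminescence so fewer parasites; stock transfer was 50 nL into about 50 µL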
# MLL AF4-AF9 inh – inhibitors of human MLL-AF4/AF9 interaction; P42568; AlphaScreen, biotin-AF4 peptide binding to FLAG-AF9; inhibition, % at 10 µM; 350,000 compounds, 0.47% hits; AID 651704;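 active = every replicate reaching a set inhibition limit, whatever the replicate mean, cut at about 25% in these data; inconclusive = mean inhibition reaches that limit but some replicates miss it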;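 note: 0% = plate neutral control median and 100% = total signal loss; the record names both 10 and 1 µM as test concentration; the first replicate is given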
# Target sequence (P42568 whole entry, looked up): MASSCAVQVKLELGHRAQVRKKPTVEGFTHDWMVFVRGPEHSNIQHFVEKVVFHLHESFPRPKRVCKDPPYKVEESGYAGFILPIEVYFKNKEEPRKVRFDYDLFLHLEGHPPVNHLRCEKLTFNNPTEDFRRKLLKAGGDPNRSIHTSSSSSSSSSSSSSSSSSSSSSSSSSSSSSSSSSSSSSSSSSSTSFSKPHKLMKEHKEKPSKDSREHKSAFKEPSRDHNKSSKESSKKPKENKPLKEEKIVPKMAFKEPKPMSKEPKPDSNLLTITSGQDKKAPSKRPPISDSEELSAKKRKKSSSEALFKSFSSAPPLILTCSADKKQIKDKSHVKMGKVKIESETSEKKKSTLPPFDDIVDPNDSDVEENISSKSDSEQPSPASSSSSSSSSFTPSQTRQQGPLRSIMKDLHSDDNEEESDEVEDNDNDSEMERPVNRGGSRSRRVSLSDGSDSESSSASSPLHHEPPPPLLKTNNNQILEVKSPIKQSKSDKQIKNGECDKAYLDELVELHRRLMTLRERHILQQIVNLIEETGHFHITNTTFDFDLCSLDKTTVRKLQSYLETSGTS
# Beta apoptosis – blocks beta cell apoptosis | INS-1E cytokine-induced death, ATP luminescence, 48 h; percent of positive-control rescue, neutral wells zero | protection from apoptosis, % (test concentration not listed) | 300,000 compounds, 0.8% hits | AID 435005;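 active = all replicates at 75% or more, or half of them and the mean; inconclusive = half reach 75% but not the mean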;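 note: 0% = cytokine-treated negative control wells and 100% = positive control rescue; higher means more ATP so stronger rescue from cytokine killing; wells of about 40 µL received 100 nL stock; the first replicate is given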
# rRNA inh HTS OD600 – also measured in rRNA inh HTS; calls as there; OD600 change, %; measured here: OD600 growth;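 optical density of the mix in the first replicate; 0 = DMSO median and -100 = no signal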
# rRNA inh HTS RFP – recorded beside rRNA inh HTS, whose call it bears; RFP signal change, %; measured here: RFP humanized mutant strains;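 first replicate; 0 = DMSO median and -100 = no signal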
# * hit, by the source's call; i = inactive; ? = inconclusive; nt = no result given. These rows are one share of the data. The share of hits here may be higher or lower than overall.
item	Molecule	FGF22 binding	rRNA inh HTS	rRNA inh HTS OD600	rRNA inh HTS RFP	UCH37 inh	Ecoli growth	A1 inh	T cruzi repl	MLL AF4-AF9 inh	Beta apoptosis
1	O=C(c1ccc(Cl)c(S(=O)(=O)NCc2cccnc2)c1)N1CCCC1	i	-5	-3	-6.1	3.4	0.65	nt	nt	0.6	nt
2	O=C(NCCc1ccc(Cl)cc1)C1CCCN1C(=O)Nc1ccccc1 (centres undefined)	i	10	5	2.4	5.3	0.67	0.1	-6	2.8	1
3	Cc1ccccc1C(=O)NCC(=O)OC1CCCCC1=O (centres undefined)	i	0	2	-0.2	-0.9	0.65	0.1	-1	?	-15
4	CCSc1nc(C)c(CC)c(C)c1C(N)=O	nt	nt	nt	nt	2.9	0.71	1.1	-5	nt	nt
5	COc1ccc(NC(=S)c2ccccc2)cc1	nt	nt	nt	nt	3.7	0.72	-0.4	-4	nt	-11
6	COc1ccccc1N(CC(=O)NCc1ccco1)C(=O)CCC(=O)Nc1ccccn1	i	6	0	-0.2	4.1	0.69	-0.3	7	0.6	3
7	CN1CCN(C(=S)C(=O)NCc2ccccc2)CC1	i	12	10	-1.7	3.4	0.7	0.4	-9	-1.0	-2
8	CC1(C)Cn2c(nnc2-c2ccccc2)S1	nt	nt	nt	nt	2.9	0.63	0.4	-9	nt	-2
9	COc1cccc(NC(=O)C(C)OC(=O)c2n[nH]c3ccccc23)c1 (centres undefined)	i	-27*	-19*	2.1*	-0.6	0.71	0.0	nt	1.4	1
10	Cc1cccc(C)c1OC(=O)c1ccccc1	i	14	9	-0.2	0.7	0.69	nt	nt	-4.5	nt
11	O=C(NC(NC(=S)Nc1ccccc1C(=O)O)C(Cl)(Cl)Cl)c1ccccc1 (centres undefined)	nt	nt	nt	nt	-109	0.73	0.6	-3	nt	2
12	CCCCNC(=O)NNc1nc(Cl)cc(C)c1C#N	i	8	3	-0.4	0.6	0.63	-0.4	-5	-2.4	13
13	COc1cc(NC(=O)Cn2nc(Cc3cccnc3)c3ccccc3c2=O)cc(OC)c1OC	i	-5	-8	-11	4.6	0.79	0.8	9	5.8	-7
14	Cc1ccccc1-c1cc(C(=O)NCc2cccs2)n(CC2CC(c3cccnc3)=NO2)n1 (centres undefined)	i	-18*	-11*	5.7*	1.4	0.66	0.6	nt	-0.8	-5
15	Cc1c(S(=O)(=O)N2CCCC(C)C2)c(=O)n(C)c(=O)n1C (centres undefined)	i	4	9	-1.2	2.8	0.68	0.4	-9	-17	nt
16	COc1ccc(/C(C)=N/NC(=O)CNC(=O)/C=C\c2ccccc2OC)c(OC)c1	i	0	-3	-1.4	nt	nt	-0.1	-7	-2.8	-6
17	CCOC(=O)C1CCN(S(=O)(=O)c2ccc(Br)c(OCC)c2)CC1	nt	nt	nt	nt	1.4	0.75	-0.6	-39	nt	-2
18	O=C(NCc1cc(C(F)(F)F)ccc1Cl)c1cccc2c1C(=O)c1ccc(N3CCOCC3)cc1S2(=O)=O	i	19	13	0.6	1.0	0.71	-0.3	nt	-0.7	42
19	COc1ccc(/C=N/NC(=O)CNC(=O)c2ccncc2)cc1	i	3	-1	-0.2	nt	nt	-0.2	6	-0.2	-4
20	O=C(N/C(=C\c1ccc([N+](=O)[O-])cc1)C(=O)N1CCOCC1)c1cccc(Br)c1	i	7	12	-3.3	8.7	0.7	-1.2	2	3.0	nt
21	O=C(CSCC(=O)N1CCOCC1)Nc1ccccc1	nt	nt	nt	nt	5.2	0.81	?	nt	nt	-7
22	COc1ccc(CN(C)C(=O)c2ccc(Oc3ccccc3)cc2)cc1F	i	-13	-55	7.8	1.6	0.7	-0.1	9	0.5	-2
23	CCN1CCN(C(=O)/C=C/c2ccc(OC)cc2)CC1	i	22	17	5.7	3.5	0.72	0.9	9	-8.1	-9
24	COc1cc(/C=C2\CCC(C3CCCC3)C2=O)ccc1OC(C)C (centres undefined)	i	2	-3	1.6	-2.0	0.65	-0.4	19	3.6	1
25	COC(=O)c1ccccc1NC(=O)CSCC(=O)Nc1ccc(F)cc1	i	-9	-10	-2.6	-0.4	0.72	-2.4	3	7.8	-7

# More records follow.
item	Molecule	FGF22 binding	rRNA inh HTS	rRNA inh HTS OD600	rRNA inh HTS RFP	UCH37 inh	Ecoli growth	A1 inh	T cruzi repl	MLL AF4-AF9 inh	Beta apoptosis
26	CCOC(=O)C1=C(c2ccccc2)NC(=S)NC1c1cc([N+](=O)[O-])ccc1OC (centres undefined)	nt	nt	nt	nt	5.6	0.71	1.1	2	nt	7
27	COc1ccc(C(=O)N2CCN(C(=O)c3ccc(-c4ccccc4)cc3)CC2)cc1OC	i	6	26	7.2	1.0	0.67	0.5	-6	-1.9	-1
28	CC(=O)Oc1cccc(NC(=O)c2cccc(C(=O)Nc3cccc(OC(C)=O)c3)c2)c1	i	-11	-17	2.1	2.4	0.71	-0.5	-18	-2.4	nt
29	CCNc1nc(NCC)nc(OCC(=O)O)n1	i	6	14	0.4	0.2	0.73	1.2	-7	-7.4	-11
30	CCCCC(=O)Nc1ccc(C(=O)N2CCN(C)CC2)cc1	nt	nt	nt	nt	-2.5	0.7	-0.3	-11	nt	3
31	Cc1c(NC(=O)C2CCCN2S(=O)(=O)c2cccc3nsnc23)cccc1C(=O)O (centres undefined)	i	2	1	0.7	6.1	0.73	-0.2	-4	-0.4	nt
32	CNC(=O)c1csc(Cc2c(Cl)sc3ccc(Cl)cc23)n1	i	-40	-33	-6.0	5.5	0.61	-0.3	5	-2.5	1
33	COc1ccc(CCNC(=O)CN2C(=O)NC3(CCCCC3C)C2=O)cc1 (centres undefined)	i	3	16	-2.1	-2.6	0.71	2.1	nt	-6.2	-5
34	O=C(O)CC1SC(=O)N(Cc2ccccc2)C1=O (centres undefined)	nt	nt	nt	nt	1.2	0.69	1.4	-7	nt	-8
35	O=C(CSc1nc2ccccc2c(=O)n1Cc1ccco1)c1ccccc1	nt	nt	nt	nt	4.4	0.63	1.9	15	nt	9
36	O=C(c1cc2cc(F)ccc2[nH]1)N1CCCC(Nc2ccc(F)cc2)C1 (centres undefined)	i	-65	-76	-18	nt	nt	0.3	7	4.9	-3
37	CC1=C(C(=O)Nc2ccccc2C(=O)NC2CCCCC2C)SCCO1 (centres undefined)	i	4	8	-0.8	2.0	0.67	-0.6	-2	3.4	-2
38	O=C(Cc1ccccc1)NCC(=O)N1CCCC1	i	6	11	-1.8	1.5	0.72	-0.9	-13	3.3	-7
39	O=C1C(=O)N(CCO)C(c2cccc(F)c2)/C1=C(\O)c1ccc(Cl)cc1 (centres undefined)	nt	nt	nt	nt	10	0.7	-0.1	-7	nt	-5
40	COc1cccc(CNC(=O)CN2C(=O)CSc3ccc(S(=O)(=O)N4CCOCC4)cc32)c1	i	3	7	0.9	0.2	0.66	1.3	1	0.8	-5
41	Cc1ccc(-n2c(C)n[nH]c2=S)cc1	nt	nt	nt	nt	5.2	0.65	0.6	-4	nt	-7
42	CCc1nc2scc(-c3ccccc3)c2c(=O)n1N	nt	nt	nt	nt	-1.1	0.68	-0.7	-8	nt	1
43	Cc1ccc(NC(=O)COC(=O)c2ccc([N+](=O)[O-])o2)cc1S(=O)(=O)N1CCCCC1	nt	-8	-5	-2.1	1.0	0.67	0.1	?	0.2	1
44	CCOC(=O)COc1ccc2c(C)cc(=O)oc2c1C(=O)c1ccccc1	i	-13	-40	-6.6	-11	0.66	0.2	16	0.8	-3
45	O=C(OCC(=O)N1CCc2ccccc21)[C@@H]1CC(O)CN1S(=O)(=O)c1ccc(Cl)cc1 (some centres undefined)	i	-13	-16	3.5	2.4	0.73	0.3	nt	3.2	-3
46	O=C(Cn1nnc2ccccc2c1=O)N[C@@H](Cc1c[nH]c2ccccc12)C(=O)O	i	9	5	1.1	4.7	0.71	0.5	-18	1.0	-2
47	COC(=O)C1=C(C)N=C2SCCC(=O)N2C1c1cccs1 (centres undefined)	nt	nt	nt	nt	1.2	0.7	-0.8	-10	nt	-4
48	O=C(CN1CCCCC1)n1c2ccccc2c2ccccc21	i	-24*	7.4*	-2.2*	7.0	0.65	0.3	3	nt	4
49	COc1ccc([N+](=O)[O-])cc1NC(=O)Cc1ccc(Cl)cc1	nt	nt	nt	nt	1.1	0.66	1.0	13	nt	1
50	CCn1cc([N+](=O)[O-])nc1C	nt	nt	nt	nt	4.7	0.64	-0.6	-15	nt	3

# The list continues:
item	Molecule	FGF22 binding	rRNA inh HTS	rRNA inh HTS OD600	rRNA inh HTS RFP	UCH37 inh	Ecoli growth	A1 inh	T cruzi repl	MLL AF4-AF9 inh	Beta apoptosis
51	CC1CC(C(F)F)n2nc(C(=O)O)cc2N1 (centres undefined)	nt	nt	nt	nt	4.6	0.69	-0.2	-6	nt	-6
52	COc1ccc(C=NNc2nc3c([nH]2)c(=O)n(C)c(=O)n3C)cc1	i	-4	7	-0.6	4.1	0.69	nt	nt	-1.8	nt
53	Nc1ncnc2c1ncn2[C@@H]1O[C@H](CNS(=O)(=O)c2cc(S(=O)(=O)c3ccccc3)cs2)[C@@H](O)[C@H]1O	i	4	0	-2.6	-1.6	0.71	nt	nt	-5.1	nt
54	Cc1ccc2c(CC(=O)N3CCc4ccccc43)coc2c1	nt	nt	nt	nt	0.2	0.66	-11	9	nt	-4
55	Cn1c(SCC(=O)N2CCCc3ccccc32)nnc1-c1cccs1	nt	nt	nt	nt	4.5	0.66	0.1	0	nt	5
56	COc1ccccc1CC(=O)NC(=O)c1ccccc1O	i	6	-12	-1.7	-19	0.62	0.3	-16	2.3	-4
57	CCN(Cc1ccccc1)S(=O)(=O)c1ccc(S(=O)(=O)N(Cc2cccc(OC)c2)CC2CCCO2)cc1 (centres undefined)	i	14	7	-4.2	2.5	0.69	-1.3	49	6.5	7
58	CC(C)CN1C(=O)N(c2ccc(Cl)cc2)C(C)(O)CC1(C)C (centres undefined)	i	3	-6	-1.5	0.7	0.69	0.2	-3	-4.0	4
59	O=C(O)COc1ccccc1C=NNC(=O)c1ccc(NS(=O)(=O)c2cccs2)cc1	nt	nt	nt	nt	13	0.69	-0.5	nt	-1.2	-3
60	O=[N+]([O-])c1ccccc1/C=C/CN1CCC(O)CC1	i	5	9	1.1	2.1	0.71	-0.1	0	2.3	-13
61	C=CCNC(=O)c1onc(CSc2cccc(C)c2)c1C(=O)O	i	-5	0	1.9	nt	nt	-0.9	0	-6.9	2
62	Cc1cc(NC(=O)CSc2nc3cc4c(cc3c(=O)n2CCc2ccccc2)OCO4)no1	nt	nt	nt	nt	4.1	0.73	1.8	8	nt	19
63	N#CCC(=O)N/N=C/c1ccc(N2N=C(c3ccccc3)CC2c2ccccc2)cc1 (centres undefined)	i	19	-1	16	nt	nt	-0.2	39	-6.3	-4
64	CC(=O)Nc1c(Cl)cc2c(c1Cl)C(=O)c1ccccc1-2	i	-1	-10	-0.1	1.5	0.61	nt	nt	1.7	nt
